SARS PLpro yeast: inhibitors of SARS-CoV papain-like protease in yeast; S. cerevisiae expressing SARS-CoV PLpro, growth rescue; control for the full effect not named in the record; 330,000 compounds, 0.19% hits; AID 485353; Potency, µM (doses to about 32.9 µM), inactives show at the highest dose activity, positive = growth rescue; active means well fitted rising curve with a large enough effect; inconclusive means small, poorly fitted or top-dose-only effect; inactive means no such curve, though single readings can be large or run the other way; note: 0% is about no effect; nearly all actives have a fitted effect of over 55% in size; growth read by luminescence after 48 h
2A StopGo: lowers the luciferase signal of an FMDV 2A StopGo reporter | human cells with a luciferase reporter of 2A StopGo recoding; control for the full effect not named in the record | Potency, µM (top dose mostly 57.9 µM), inactives show at the top dose signal change, negative = less light | 410,000 compounds, 1.2% hits; active = well fitted falling curve with a large enough effect; inconclusive = small, poorly fitted or top-dose-only effect; inactive = no such curve, though single readings can be large or run the other way; tested in HEK293T cells; note: % is set by controls: 0 for no effect and ±100 for the full control effect; nearly all actives have a fitted effect of over 45% in size; luciferase light after 4 h
NS1 function inh: blocks influenza NS1 protein function. AID 2326. 270,000 compounds, 0.4% hits. Potency, µM (doses to about 46.1 µM), inactives show at the top dose activity, positive = more growth. S. cerevisiae slowed by influenza A NS1, growth recovery by OD600; active means well fitted rising curve with a large enough effect; inconclusive means small, poorly fitted or top-dose-only effect; inactive means no such curve, though single readings can be large or run the other way; note: nearly all actives have a fitted effect of over 50% in size
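OD600 was taken as the measure of yeast growth restored by compound in an NS1-expressing S. cerevisiae strain. Cells had been washed out of glucose medium and diluted 1:100 into galactose -URA medium, pH 6.0.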
MARV entry inh: blocks Marburg virus binding to or entry into cells; 300,000 compounds, 1.8% hits; Potency, µM (series often up to 37.8 µM), without a hit: at the highest dose activity change, negative = inhibition, actives largely listed as inhibitors; Marburg virus pseudotyped entry inhibition, cell reporter; control for the full effect not named in the record; about a third of the inactives were read at about 46 µM; active = well fitted inhibition curve with a large enough effect; inconclusive = small, poorly fitted or top-dose-only effect, or effect the other way; inactive = flat fitted curve, though single readings scatter; tested in HEK293 cells; about a fifth of its hits are not listed in these tables; note: % is set by controls: 0 for no effect and ±100 for the full control effect; luciferase read-out
Cruzain Triton: inhibitors of Trypanosoma cruzi cruzain with detergent; purified cruzain, Z-FR-AMC fluorescence, 0.01% Triton; Potency, µM, for inactives: max response, negative = inhibition, actives largely listed as inhibitors; 200,000 compounds, 0.43% hits;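 note: plate controls were neutral wells for no effect and buffer without enzyme for full effect; nearly all actives have a fitted effect of over 40% in size; top concentration of the series not given in the record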
Target sequence (P25779 123-467 limits assumed): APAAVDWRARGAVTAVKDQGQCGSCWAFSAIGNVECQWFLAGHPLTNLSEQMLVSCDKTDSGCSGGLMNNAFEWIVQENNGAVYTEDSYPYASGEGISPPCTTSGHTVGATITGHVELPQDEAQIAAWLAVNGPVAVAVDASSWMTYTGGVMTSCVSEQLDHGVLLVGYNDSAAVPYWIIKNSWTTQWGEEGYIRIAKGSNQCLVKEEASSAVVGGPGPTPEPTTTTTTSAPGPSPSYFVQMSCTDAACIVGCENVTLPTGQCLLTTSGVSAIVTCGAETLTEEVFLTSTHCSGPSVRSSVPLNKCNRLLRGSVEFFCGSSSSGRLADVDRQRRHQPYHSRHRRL
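Cruzain (1.5 nM) preincubated 15 min at RT with compound in 100 mM sodium acetate pH 5.5, 5 mM DTT, 0.01% Triton X-100. Reaction started with 2 uM Z-FR-AMC; AMC fluorescence (ex 360/em 450 nm) change over 60 s gave rate.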
Lassa entry inh: Lassa virus entry inhibition. Lassa virus pseudotype entry inhibition, cell reporter; control for the full effect not named in the record. Potency, µM (doses to about 37.9 µM), for inactives: at the highest dose activity change, negative = inhibition, actives largely listed as inhibitors. 300,000 compounds, 1.2% hits. AID 540256; active means well fitted inhibition curve with a large enough effect; inconclusive means small, poorly fitted or top-dose-only effect, or effect the other way; inactive means flat fitted curve, though single readings scatter; tested in HEK293 cells; note: % is set by controls: 0 for no effect and ±100 for the full control effect; nearly all actives have a fitted effect of over 50% in size; luciferase read-out
RE007 growth inh: less growth of the S. pombe RE007 Vpr strain | AID 651644 | Potency, µM (titrated, usually from 92.2 µM), for inactives: at the top dose activity change, negative = less growth | S. pombe RE007 Vpr strain, BacTiter-Glo ATP luminescence, 24 h; control for the full effect not named in the record | 360,000 compounds, 0.21% hits; active = well fitted falling curve with a large enough effect; inconclusive = small, poorly fitted or top-dose-only effect; inactive = no such curve, though single readings can be large or run the other way;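 note: % is set by controls: 0 for no effect and ±100 for the full control effect; nearly all actives have a fitted effect of over 50% in size; the assay follows cell death caused by Vpr and the record does not say whether a fall means rescue or toxicity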
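Fission yeast strain RE007, carrying one chromosomally integrated HIV-1 vpr copy, was seeded at OD 0.01 in PMG+AL medium with 23 nL pinned compound. After 24 h at 30 °C and 99% humidity, viability was read by BacTiter-Glo luminescence.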
Cruzain noTriton: blocks cruzain activity in detergent-free assay; P25779; purified cruzain, Z-FR-AMC fluorescence, no detergent; Potency, µM, for inactives: max response, negative = inhibition, hits mostly inhibitors; 200,000 compounds, 2.3% hits;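 note: plate controls were enzyme without inhibitor for no effect and buffer without enzyme for full effect; nearly all actives have a fitted effect of over 40% in size; top concentration of the series not given in the record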
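Detergent-free condition (0.00005% Triton X-100) in acetate buffer pH 5.5 with DTT. 1.5 nM enzyme and compound were pre-mixed 15 min, then 2 uM Z-FR-AMC substrate added; reaction progress from fluorescence change between first and third reads (60 s).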
* hit, by the source's call; ? = inconclusive; . = no result given; & = joins results of further samples; [ ] = another dose, or the depositor's remark. Unless noted, calls come from the whole dose curve; as a rule, active = well fitted curve in the direction sought with a large enough effect; inconclusive = small, poorly fitted or top-dose-only effect, or another doubt; inactive = no such curve, though single readings can be large; an effect the other way counts as inactive or inconclusive. Potency is the fitted concentration of half-maximal effect.

SMILES	SARS PLpro yeast	2A StopGo	NS1 function inh	MARV entry inh	Cruzain Triton	Lassa entry inh	RE007 growth inh	Cruzain noTriton
CCOC(=O)c1c(-c2ccc(OC)cc2)csc1NC(=O)COc1ccc2c(C)cc(=O)oc2c1	14%	-21%	4%	0%	3.7%	-6%	4%	7%
COc1ccc(NC(=O)C2CC(=O)n3cnnc3S2)cc1 (centres undefined)	-41%	5%	-54%	1%	6.7%	3%	?	-1%
CCCC(=O)OCC(=O)NCc1ccc(Cl)cc1	0%	-2%	.	4%[46.1 µM]	.	-1%	-20%	.
COc1ccc(N2CCN(C(=O)c3ccc4c(c3)CCN4S(=O)(=O)c3ccccc3)CC2)cc1	2%	3%&19%	0%	9%[46.1 µM]	-0.9%	-5%[46.1 µM]	-2%	29%
Cc1cc(C)cc(-n2c(=O)c3sccc3n(CC(=O)NCc3ccco3)c2=O)c1	1%	12%	12%	8%	2.8%	-7%	-1%	25%
CC(=O)OCCC(NS(=O)(=O)OCC(Cl)(Cl)Cl)c1ccccc1 (centres undefined)	2%	-10%	-6%	.	.	.	2%	.
COCCCNC(=S)NC(=O)c1ccc(C)cc1	13%	-9%	12%	?	-3.6%	?	-27%	15%
O=C(Nc1ccc(NC(=O)C2CC2)nc1)c1ccccc1F	-7%	40%[activator]	-7%	4%[46.1 µM]	.	-5%	10%	.
Cc1ccc2[nH]c(=O)c(CN(CC3CCCO3)C(=O)c3ccncc3)cc2c1 (centres undefined)	5%	-4%	-1%	0%	4.1%	-16%	3%	3%
O=C(Nc1ccc2oc(-c3ccccc3)nc2c1)c1ccc2c(c1)OCCO2	-2%	?	-52%	?	5.3%	-2%	-1%	-2%
CCOc1cc(-c2ccc(OC(=O)c3ccc(C)cc3)c(OC)c2)cc(=O)c2c(C)oc(C)c12	.	25µM*	.	21%[46.1 µM]	0.2%	6%[46.1 µM]	.	2%
CCC(C)NC(=O)c1cnn2c1NC(c1ccc3c(c1)OCO3)CC2C(F)(F)F (centres undefined)	4%	-14%	3%	0%	-2.2%	14%	-12%	4%
COc1ccccc1CNC(=O)CCC1N=C2c3ccccc3N=C(SCc3cccc(Cl)c3)N2C1=O (centres undefined)	.	-27%	.	-3%[46.1 µM]	-3.4%	?	.	-2%
OC(CNCC1COc2ccccc2O1)COCc1cccs1 (centres undefined)	-5%	-19%	-4%	-19%	-0.2%	7%	-13%	7%
Cc1cc(Br)ccc1NC(=O)C(C)c1ccc([N+](=O)[O-])cc1 (centres undefined)	-13%	-25%	1%	-12%	-4.1%	3%	12%	2%
Cc1cc(C)c(S(=O)(=O)N2CCCCC2)c(C)c1N(C)S(=O)(=O)c1ccccc1	0%	.	5%	?	-3.9%	-28%	8%	5%
C=CCOc1ccc(CNc2nccs2)cc1	5%	38%[activator]	-12%	26%	0.7%	8%	-21%	?
COc1ccc(-c2cc3nc(C)c(CCC(=O)Nc4ccccc4C(C)=O)c(C)n3n2)c(OC)c1	.	-24%	.	-10%[46.1 µM]	-0.6%	-21%[46.1 µM]	.	5%
COc1ccc(/C=C2/SC(=S)N(Cc3ccccc3)C2=O)cc1O	2%	32%[activator]	5%	.	.	.	-7%	.
O=C(NCCN1C(=O)S/C(=C\c2ccccc2Cl)C1=O)C1=COCCO1	0%	0%	.	?	.	?	-11%	.
CN1CCN(NC(=O)c2ccc(Cl)cc2Cl)CC1	11%	-6%	?	?	5.0%	?	3%	-2%
CCOC(=O)c1[nH]c2ccc(OC)cc2c1NC(=O)c1nonc1C	4%	-7%	-9%	10%	6.2%	2%	-13%	4%
Cc1nnc(SCC(=O)N(C)C2CCS(=O)(=O)C2)n1Cc1ccccc1 (centres undefined)	0%	-13%	10%	?	.	21%	-3%	.
CC(C)=CCC/C(C)=C/C(=O)O	-1%	-18%	1%	.	.	.	-4%	.
Cc1c(N/C(=N/S(=O)(=O)c2ccc(F)cc2)c2ccccc2)c(=O)n(-c2ccccc2)n1C	1%	15%	-1%	.	.	.	-10%	.
COc1ccc(NC(=O)Nc2ncn(Cc3cccc(C(F)(F)F)c3)n2)cc1OC	0%	?	-18%	-3%	-2.6%	-26%	9%[3.69 µM]	?
CC(CC(=O)NCC1CCCO1)c1ccccc1 (centres undefined)	5%	-15%	1%	-3%	2.2%	8%	-8%	3%
CNC(=O)c1ccsc1NC(=O)C1CCN(S(=O)(=O)c2cccs2)CC1	-2%	-28%	.	-20%[46.1 µM]	.	-17%	-6%	.
COc1ccc(CCNC(=O)C2CC(=O)N(c3ccc(C)cc3)C2)cc1OC (centres undefined)	0%	17%	-20%	16%[46.1 µM]	.	-2%[46.1 µM]	14%	.
CCOC(=O)C(C)Oc1ncnc2cccc(F)c12 (centres undefined)	0%	-5%	.	21%[46.1 µM]	.	-2%	4%	.

2 entries from above, with values under each structure.
Below each SMILES: SARS PLpro yeast | 2A StopGo | NS1 function inh | MARV entry inh | Cruzain Triton | Lassa entry inh | RE007 growth inh | Cruzain noTriton
CCCC(=O)OCC(=O)NCc1ccc(Cl)cc1
→ 0% | -2% | . | 4%[46.1 µM] | . | -1% | -20% | .
COCCCNC(=S)NC(=O)c1ccc(C)cc1
→ 13% | -9% | 12% | ? | -3.6% | ? | -27% | 15%

Next results follow:
SMILES	SARS PLpro yeast	2A StopGo	NS1 function inh	MARV entry inh	Cruzain Triton	Lassa entry inh	RE007 growth inh	Cruzain noTriton
Cc1nn(-c2cccc(Cl)c2)nc1C(=O)O	-5%	0%	6%	13%[46.1 µM]	.	8%	-14%	.
O=C(NCCc1ccccc1)C(=O)NCC1OCCN1S(=O)(=O)c1cccs1 (centres undefined)	-8%	11%	13%	-5%	.	?	5%	.
C=CCSC1=N/C(=C\c2ccc(C)o2)C(=O)S1	0%	-9%	-45%	8%	-8.6%	-14%	?	-5%
O=C(NCCSc1ncc(-c2ccc(F)cc2)[nH]1)c1ccc2c(c1)OCO2	3%	17%	.	?	.	-1%	2%	.
N#CCC(=O)Nc1ccc(C(=O)OCC(=O)NC2CCCc3ccccc32)cc1 (centres undefined)	2%	-5%	.	?	.	7%	2%	.
Cn1c(=O)[nH]c(=O)c2c1nc(NCCO)n2CCOc1ccccc1	0%	7%	21%	.	.	.	-14%	.
O=C1COc2ccc(C(=O)CSc3nnc(Cc4ccccc4)o3)cc2N1	.	-10%	.	20%	.	6%	0%	.
COc1ccc2ccccc2c1CNc1nnnn1C	1%	4%	2%	?	.	?	5%	.
COc1cc(Sc2ccc(C)cc2)c(OC)cc1N	0%	.	9%	-8%	0.7%	-7%	-16%	16µM*
O=C1CN(C(=O)COC(=O)c2ccc([N+](=O)[O-])s2)c2ccccc2N1	5%	-4%	.	-12%	.	5%	-16%	.
COc1ccc(C(=O)c2cn[nH]c2-c2ccc(C)cc2O)cc1	0%	-15%	1%	-12%[46.1 µM]	.	-14%[46.1 µM]	4%	.
COc1ccc2c(c1)Cc1sc(NC(=O)c3ccccc3C)nc1-2	.	6%	.	?	0.2%	3%[46.1 µM]	.	2%
CC(NC(=O)C1CCC1)c1ccc2c(c1)OCO2 (centres undefined)	6%	-10%	1%	-9%	2.3%	14%	11%	7%
CCOc1ccc(N2CC(C(=O)NCc3ccc(F)cc3)CC2=O)cc1 (centres undefined)	9%	.	-4%	14%	1.8%	0%	11%	-6%
COC(=O)c1ccc(N)c(CS(=O)(=O)c2ccc(Cl)cc2)c1	-4%	-13%	0%	.	.	.	4%	.
CN(C)C1(CNCC(O)c2ccccc2)CCCCC1 (centres undefined)	0%	-29%	5%	.	.	.	-2%	.
Cc1ccc(O)c(-c2cc(C(=O)Nc3ccc(S(=O)(=O)N4CC(C)OC(C)C4)cc3)[nH]n2)c1 (centres undefined)	4%	?	-33%	?	-11%	?	11%	20%
COc1ccc(/C=C(\C#N)C(=O)OCC(=O)NCc2ccccc2Cl)cc1	1%	10%	-4%	10%[46.1 µM]	.	10%	-4%	.
CCc1cc(C(=O)NCC(c2cccs2)N2CCOCC2)sc1C (centres undefined)	-1%	-9%	.	-8%	.	6%[46.1 µM]	-6%	.
COc1ccc(CNC(=O)C2CCN(C(=O)c3ccc(-c4ccccc4)cc3)CC2)cc1	-3%	?	-51%	?	.	2.5µM*	8%	.
CCNc1nc(NCC)nc(Nn2cnnc2)n1	11%	8%	3%	-2%	4.2%	11%	-9%	-3%
COc1ccc(Cc2nc3ccc(C(=O)N4CCCC4)cc3o2)cc1OC	9%	?	1%	?	.	?	-7%	.
Cc1cc(C)c(NC(=O)CS(=O)CC(=O)NCC2CCCO2)c(C)c1 (centres undefined)	12%	-13%	-10%	-2%	5.3%	17%	3%	-3%
N#CC1=C(N)NC(SCc2ccccc2)=C(C#N)C12CCCCC2	-10%	?	-70%	?	-17%	?	-9%	?
COc1ccc(OCCn2c(NC(=O)c3ccc(OC)cc3)nc3ccccc32)cc1	.	17%	.	15%[46.1 µM]	-4.8%	-4%[46.1 µM]	.	14%
CCN(CC)S(=O)(=O)c1ccc(C)c(NC(=S)N2CCN(c3ccccn3)CC2)c1	-1%	-15%	-37%	?	.	10µM*	0%	.
Cc1ccc(CNC(=O)Nc2ccc(Cl)cc2)cc1	-2%	32%[activator]	-16%	.	.	.	8%	.
Cc1ccccc1COC(=O)CNC(=O)c1sc2ccccc2c1Cl	-1%	3%	.	8%	.	?	-6%	.
CCCC(C(=O)NCc1ccco1)N(CC1CCCO1)C(=O)CNS(=O)(=O)c1ccc(F)cc1 (centres undefined)	2%	11%	-1%	-1%[46.1 µM]	.	18%	4%	.
CCCNC(=S)N1CCN(CC)CC1	4%	0%	0%	-1%	1.5%	-1%	-8%	-7%
COc1ccc(C(C(=O)NC(C)(C)C)N(Cc2ccc(F)cc2)C(=O)CCC(=O)Nc2cc(C)on2)cc1 (centres undefined)	5%	3%	10%	?	.	-2%	-8%	.
COc1ccc(CN(Cc2cccnc2)C(=S)NCCc2ccccc2)cc1OC	2%	-29%	?	5%	0.5%	11%	16%[3.69 µM]	?
CC1(C)CC(=O)c2sc(NS(=O)(=O)c3ccc(F)cc3)nc2C1	-1%	?	-2%	22%[46.1 µM]	.	3%	-8%	.
